Screening results (PubChem BioAssay)
VDR inhibitor: vitamin D3 receptor (human) inhibition | actives 0.93% (n = 400,000) | VDR-SRC2-3 peptide fluorescence polarization, 2 h | P11473 | AID 504847 | Potency, µM, without a hit: max response, negative = inhibition, usual class: inhibitors; active = well fitted inhibition curve with a large enough effect; inconclusive = small, poorly fitted or top-dose-only effect, or another doubt; inactive = no such curve, though single readings can be large or run the other way; note: series mostly up to about 120 µM
Target sequence (P11473 whole entry, looked up): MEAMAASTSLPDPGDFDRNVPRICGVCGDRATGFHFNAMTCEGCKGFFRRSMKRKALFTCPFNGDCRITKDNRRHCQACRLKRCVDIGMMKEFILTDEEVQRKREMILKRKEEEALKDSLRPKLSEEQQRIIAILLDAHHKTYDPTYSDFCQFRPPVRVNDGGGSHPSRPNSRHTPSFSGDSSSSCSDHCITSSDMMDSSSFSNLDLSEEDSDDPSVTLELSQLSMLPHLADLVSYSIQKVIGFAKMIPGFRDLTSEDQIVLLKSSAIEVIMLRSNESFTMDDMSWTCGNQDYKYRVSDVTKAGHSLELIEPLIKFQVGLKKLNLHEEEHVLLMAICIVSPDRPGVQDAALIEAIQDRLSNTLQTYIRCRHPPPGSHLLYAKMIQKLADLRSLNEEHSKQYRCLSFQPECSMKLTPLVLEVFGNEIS
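Fluorescence polarization assay of small-molecule disruption of VDR binding to coregulator peptide SRC2-3. Compounds and controls pin-transferred, then read after 2 h incubation at ambient room temperature.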
Starred values were filed as active, the others as inactive; & = joins results of further samples; [ ] = another dose, or the depositor's remark. % is set by controls: 0 for no effect and ±100 for the full control effect; potency is the fitted concentration of half-maximal effect. The list is partial; rates above refer to the full screens.

Sample of the layout, two compounds:
Results for O=C(c1cccn2c(=O)c3cc(Cl)ccc3nc12)N1CCN(c2ccccc2F)CC1 ?
VDR inhibitor: 13.1%

How did Nc1c(C(=O)Nc2ccc(Cl)c(C(F)(F)F)c2)sc2nc(-c3ccncc3)ccc12 do in these assays?
VDR inhibitor: -1.1%

Main list, repeating the preview:
Results for O=C(c1cccn2c(=O)c3cc(Cl)ccc3nc12)N1CCN(c2ccccc2F)CC1 ?
VDR inhibitor: 13.1%

How did Nc1c(C(=O)Nc2ccc(Cl)c(C(F)(F)F)c2)sc2nc(-c3ccncc3)ccc12 do in these assays?
VDR inhibitor: -1.1%

How did Cc1ccc(NC(=O)/C=C\C(=O)O)c([N+](=O)[O-])c1 do in these assays?
VDR inhibitor: 2.3%

Results for COc1ccc(C2CCN(CC(=O)N(C)C)CC2O)cc1 (configuration not stated) ?
VDR inhibitor: 20.8%

What do the screens show for `CN1OC[C@@H]2CN(Cc3cc(Cl)cc(Cl)c3)[C@H](c3cccc(Br)c3)C[C@@H]21`?
VDR inhibitor: 6.1%

What do the screens show for `Cc1nn(C)c(C)c1S(=O)(=O)N(CC(=O)NCCc1ccc(Cl)cc1)c1ccc(C(C)C)cc1`?
VDR inhibitor: -1.0%

How did O=C(CSc1nccn1Cc1ccccc1)NC1CCCC1 do in these assays?
VDR inhibitor: -0.6%&0.6%

What do the screens show for `Cc1cc(C)n(-c2nc3c(c(=O)[nH]c(=O)n3C)n2Cc2ccccc2)n1`?
VDR inhibitor: 25.9%

Results for OCCN(CC#CCn1c2ccccc2c2ccccc21)CCO ?
VDR inhibitor: 3.1%

What do the screens show for `O=C(c1ccco1)N1CCN(C(=O)c2cc(-c3ccc(F)cc3)no2)CC1`?
VDR inhibitor: 2.9%

How did O=C(CC(=O)c1ccccc1)Nc1ccc2c(c1)OCCO2 do in these assays?
VDR inhibitor: 15.4%

What do the screens show for `CC(C)N(Cc1ccccc1)C(=O)COC(=O)c1ccccc1SCC(=O)N1CCCC1`?
VDR inhibitor: -8.7%

Results for CC(C)OC(=O)c1c(NC(=O)c2cnn3c2NC(c2ccccc2)CC3C(F)(F)F)sc2c1CCCC2 (configuration not stated) ?
VDR inhibitor: -8.4%

What do the screens show for `O=C(Nc1ccc(F)cc1F)C1CCN(C(=O)c2cnn(-c3ccccc3)c2-n2cccc2)CC1`?
VDR inhibitor: 18.3%

Results for COc1ccc(/C=C/C(=O)O/N=C(\N)c2ccccc2)cc1OC ?
VDR inhibitor: 3.9%

How did COC(=O)CSc1nnc(-c2ccco2)n1Cc1ccco1 do in these assays?
VDR inhibitor: 11.6%

What do the screens show for `COc1ccc2c(C)cc(SCC(=O)Nc3cccnc3Cl)nc2c1`?
VDR inhibitor: -15.4%

How did O=C(CSc1nnc(-c2ccncc2)n1Cc1ccco1)N1c2ccccc2Sc2ccc(Cl)cc21 do in these assays?
VDR inhibitor: 12.8%

Results for CC(=O)c1cccc(NC(=O)C2CC(=O)N(Cc3ccccc3)C2)c1 (configuration not stated) ?
VDR inhibitor: -17.8%

How did COc1ncc2nc(C)c(=O)n(Cc3ccc(F)cc3)c2n1 do in these assays?
VDR inhibitor: -1.8%

How did CCN(CCNC(=O)CC1Oc2ccccc2NC1=O)c1ccccc1 (configuration not stated) do in these assays?
VDR inhibitor: -3.2%

Results for NS(=O)(=O)c1ccc(CCNS(=O)(=O)c2ccc(Cl)cc2)cc1 ?
VDR inhibitor: -0.8%

Results for C=CCN1C(c2ccccc2)=CS/C1=C(/C#N)c1nnc(N2CCOCC2)n1-c1ccccc1 ?
VDR inhibitor: -4.8%

How did CCn1nnc2cc(C(=O)O)ccc21 do in these assays?
VDR inhibitor: 2.8%

What do the screens show for `Cc1occc1C(=O)NN=C1C2CC3CC(C2)CC1C3`?
VDR inhibitor: -12.1%

How did CCn1c(SCC(=O)N2CCCCC2)nc(O)cc1=O do in these assays?
VDR inhibitor: 13.2%

Results for CCn1cc([N+](=O)[O-])c(C(=O)NCc2ccc(Cl)cc2)n1 ?
VDR inhibitor: -1.4%

Results for C=CCN(C#N)c1nc(OC)nc(N2CCCC2)n1 ?
VDR inhibitor: 11.3%

Results for COc1ccc(NC(=O)c2c(NCc3sccc3C)sc3c2CCCC3)c(OC)c1 ?
VDR inhibitor: 10.3%

What do the screens show for `COc1ccc(CNC(=O)C/C(C)=N/NC(=O)c2ccc(OC)cc2OC)cc1`?
VDR inhibitor: -16.2%

What do the screens show for `O=C(Nc1cccc(Cl)c1)c1nc[nH]c1C(=O)NCCCCNC(=O)c1[nH]cnc1C(=O)Nc1cccc(Cl)c1`?
VDR inhibitor: 5.6%

How did CCCCCCCCNCCS(=O)(=O)NN1CCOCC1 do in these assays?
VDR inhibitor: -16.6%

Results for O=C(Nc1cccc(-c2nc3ccccc3[nH]2)c1)c1ccco1 ?
VDR inhibitor: -2.6%

How did CCOC(=O)c1ccc(CC2S/C(=C(\C#N)C(C)=O)NC2=O)cc1 (configuration not stated) do in these assays?
VDR inhibitor: -11.7%

What do the screens show for `Clc1ccc2c(NNc3ccccc3Cl)ccnc2c1`?
VDR inhibitor: 10.7%

What do the screens show for `CCOCCCn1c(=S)[nH]c2cc(C(=O)N3CCN(C4CCCCC4)CC3)ccc2c1=O`?
VDR inhibitor: 3.8%

Results for Cc1cc(C)n(-c2cc(Oc3ccccc3)ncn2)n1 ?
VDR inhibitor: 10.2%

Results for COc1ccc(/C=C2\SC(=S)N(CCC(=O)Nc3ccccc3C(=O)O)C2=O)cc1 ?
VDR inhibitor: 1.6%

What do the screens show for `O=C(Nc1ccon1)Nc1ccc(F)cc1F`?
VDR inhibitor: 1.6%

How did COc1cccc(-c2c(C#N)c(SC)nc3cc(C)nn23)c1 do in these assays?
VDR inhibitor: 3.0%

Results for O=C(c1cccc(Br)c1)N1CCN(S(=O)(=O)N2CCOCC2)CC1 ?
VDR inhibitor: -2.0%

Results for COC(=O)c1cc(NC(=O)CN2C(=O)C(=O)N(C3CCCC3)C2=O)cc(C(=O)OC)c1 ?
VDR inhibitor: 14.9%

What do the screens show for `Cc1cccc(C(=O)Nc2ccc(N3CCC(CCN4CCOCC4)CC3)c(C(=O)O)c2)c1`?
VDR inhibitor: 3.9%

Results for Cc1ccc(O)c(-c2cc(C(=O)Nc3ccc(S(=O)(=O)Nc4nccc(C)n4)cc3)[nH]n2)c1 ?
VDR inhibitor: 2.8%

How did COc1ccc(CCN=C(N)Nc2nc(C)cc(C)n2)cc1 do in these assays?
VDR inhibitor: 1.2%

How did CCOC(=O)c1ccccc1NC(=O)COC(=O)C1CC(=O)N(CCc2ccccc2)C1 (configuration not stated) do in these assays?
VDR inhibitor: -5.0%

How did CCn1c(SCc2ccc(C(=O)Nc3nccs3)cc2)nnc1-c1ccc(NC(C)=O)cc1 do in these assays?
VDR inhibitor: -2.9%

What do the screens show for `Cc1nc2ccc(C(=O)N3CCN(c4ccccc4)CC3)cc2s1`?
VDR inhibitor: 7.7%

What do the screens show for `CC1C(=O)N2CCCc3cc(NC(=O)CC(C)(C)C)cc1c32` (configuration not stated)?
VDR inhibitor: 10.1%

Results for c1cc2c(cc1CNc1ccc(N3CCOCC3)cc1)OCO2 ?
VDR inhibitor: inconclusive

How did CCc1ccc(-c2cc(C)no2)cc1S(=O)(=O)N1CCN(c2ccccc2F)CC1 do in these assays?
VDR inhibitor: -3.5%

How did O=C1C2C3C=CC(C4CC34)C2C(=O)N1c1ccc2c(c1)OCO2 (configuration not stated) do in these assays?
VDR inhibitor: -11.6%

Results for COc1ccccc1NC(=O)c1sc(Cl)nc1C ?
VDR inhibitor: -11.4%

What do the screens show for `O=C1CSC(=S)N1/N=C/c1cc(Br)c(O)c(Br)c1`?
VDR inhibitor: inconclusive

Results for COc1ccccc1NC(=O)C(=O)NCC(c1ccco1)N1CCc2ccccc21 (configuration not stated) ?
VDR inhibitor: 27.3%

What do the screens show for `O=C(O)c1nn(-c2ccc(Cl)cc2)ccc1=O`?
VDR inhibitor: -14.9%

What do the screens show for `CCN(CC)CCNC(=O)c1ccc(NC(=O)c2cc(-c3ccncc3)nc3ccccc23)cc1`?
VDR inhibitor: 4.1%

How did CCOC(=O)c1cnn(-c2nc(-c3ccc(F)cc3)cs2)c1C(F)(F)F do in these assays?
VDR inhibitor: -5.5%

How did CCC(C(=O)OCC(=O)Nc1ccc(Cl)c(S(=O)(=O)N(C)C)c1)c1ccccc1 (configuration not stated) do in these assays?
VDR inhibitor: -3.6%

How did Cc1cccc(NC(=S)NCc2cccn2C)c1 do in these assays?
VDR inhibitor: -0.2%

What do the screens show for `O=C(CSc1nnnn1-c1ccc(O)cc1)Nc1ccc(N2CCOCC2)c(Cl)c1`?
VDR inhibitor: -11.1%

How did C/C(=N\NC(=O)CCc1ccccc1)c1ccc(Br)cc1 do in these assays?
VDR inhibitor: -4.7%

What do the screens show for `Cn1c(C(=O)N2CCC(C(=O)N3CCOCC3)CC2)cc2sccc21`?
VDR inhibitor: 8.2%

What do the screens show for `O=C(CSC1=Nc2ccccc2C2CC=NN12)Nc1ccc(F)cc1Cl` (configuration not stated)?
VDR inhibitor: -25.8%

How did Cc1nn(-c2ccccc2)c2[nH]c(=O)cc(C(F)(F)F)c12 do in these assays?
VDR inhibitor: -11.9%

How did CCOC(=O)C1(C)C=C(Nc2ccc(Br)cc2)C(=O)N1c1ccccc1 (configuration not stated) do in these assays?
VDR inhibitor: 7.2%

What do the screens show for `Cc1ccc(OC(=O)C2c3ccccc3Oc3ccccc32)cc1C`?
VDR inhibitor: -6.7%

Results for O=C(NCc1ccccc1)C1=C[C@@H](c2ccc(Br)cc2)C[C@@H](OCCCCO)O1 ?
VDR inhibitor: -5.7%

What do the screens show for `O=C(Cn1c(=O)c2cccn2c2ccccc21)Nc1ccc(F)cc1F`?
VDR inhibitor: 34.1%[activator]

How did CC(=O)c1cccc(NC(=O)CN(c2ccccc2)S(C)(=O)=O)c1 do in these assays?
VDR inhibitor: 0.3%

Results for Nc1cc(-c2ccc(Cl)cc2)nn1S(=O)(=O)c1ccccc1 ?
VDR inhibitor: -12.3%

What do the screens show for `CC1CCCN(C(=O)COC(=O)c2ccc[nH]c2=O)C1` (configuration not stated)?
VDR inhibitor: -1.3%

Results for CCOCCCNC(=O)c1ccc2c(=O)n(CCc3ccccc3)c(=O)[nH]c2c1 ?
VDR inhibitor: -3.9%

Results for Cc1ccc(S(=O)(=O)Nc2ccc(-c3ccc(N4CCCCCC4)nn3)cc2)cc1C ?
VDR inhibitor: 11.4%

What do the screens show for `COC(=O)CN1CCN(C(c2ccccc2)c2ccccc2)CC1`?
VDR inhibitor: 23.3%

What do the screens show for `Nc1nc2c(nc(Br)n2C2CC(O)C(CO)O2)c(=O)[nH]1` (configuration not stated)?
VDR inhibitor: 10.1%

How did Cc1cccc(N(CC(=O)NC2CCCC2)C(=O)CS(=O)CC(=O)Nc2ccc3c(c2)OCO3)c1 (configuration not stated) do in these assays?
VDR inhibitor: 7.9%

What do the screens show for `O=C(NCc1cccc(F)c1)C1CCC(=O)N(C2CC2)C1` (configuration not stated)?
VDR inhibitor: -5.2%

Results for CCN1CCc2c(sc(NC(=O)Cc3ccccc3)c2C(=O)OC)C1 ?
VDR inhibitor: -12.0%

How did COc1ccc(CNS(=O)(=O)c2ccc3c(c2)C(C)(C)C(=O)N3C)cc1OC do in these assays?
VDR inhibitor: 15.4%

How did Cc1cccc2c(=O)cc(C)n(CC(N)=O)c12 do in these assays?
VDR inhibitor: 5.0%

What do the screens show for `CN1CCN(c2cc(-c3ccccc3)nc3cc(-c4ccc(F)cc4)nn23)CC1`?
VDR inhibitor: 20.1%

What do the screens show for `CCN1C(=O)/C(=C/c2ccc(C)s2)NC1=S`?
VDR inhibitor: -8.4%

What do the screens show for `O=C(Nc1nc(-c2cccs2)c(-c2cccs2)s1)C1(c2ccccc2)CC1`?
VDR inhibitor: -7.4%

Results for CCn1c(=O)c2cc(C(=O)N(CCN(C)C)Cc3ccccc3)sc2c2ccccc21 ?
VDR inhibitor: -6.5%

How did CCC1(c2ccc(Cl)cc2)NC(=S)N(c2ccccc2)N1 (configuration not stated) do in these assays?
VDR inhibitor: inconclusive

Results for CCC1CCCCN1CCCNC(=O)c1cn(CC(C)C)c(=O)c2cc(OC)c(OC)cc12 (configuration not stated) ?
VDR inhibitor: 1.7%

Results for O=[N+]([O-])c1ccccc1SN(Cc1ccccc1)c1ccccn1 ?
VDR inhibitor: -8.4%

What do the screens show for `Cc1ccccc1CC(=O)N1CC(C)OC(C)C1` (configuration not stated)?
VDR inhibitor: -25.2%

What do the screens show for `O=C1C(Cl)=C(NCCc2ccccc2)C(=O)N1CCc1ccccc1`?
VDR inhibitor: -2.5%

How did O=C(/C(=N/N=C/c1ccc(O)c(O)c1O)c1ccccc1)c1ccccc1 do in these assays?
VDR inhibitor: -12.3%

How did COc1ccc2c(c1)O[C@H]1c3ccc(O)cc3OC[C@@H]21 do in these assays?
VDR inhibitor: -4.8%

Results for COc1ccc(C2c3c(oc4ccccc4c3=O)C(=O)N2c2ccc(C)cn2)cc1OC (configuration not stated) ?
VDR inhibitor: -3.4%

Ordered by length of the SMILES (smallest number first): 7 of the compounds above.
What do the screens show for `Cc1ccccc1CC(=O)N1CC(C)OC(C)C1` (configuration not stated)?
VDR inhibitor: -25.2%

How did Cc1cccc2c(=O)cc(C)n(CC(N)=O)c12 do in these assays?
VDR inhibitor: 5.0%

How did O=C(/C(=N/N=C/c1ccc(O)c(O)c1O)c1ccccc1)c1ccccc1 do in these assays?
VDR inhibitor: -12.3%

What do the screens show for `O=C(Nc1nc(-c2cccs2)c(-c2cccs2)s1)C1(c2ccccc2)CC1`?
VDR inhibitor: -7.4%

Results for CCn1c(=O)c2cc(C(=O)N(CCN(C)C)Cc3ccccc3)sc2c2ccccc21 ?
VDR inhibitor: -6.5%

Results for COc1ccc(C2c3c(oc4ccccc4c3=O)C(=O)N2c2ccc(C)cn2)cc1OC (configuration not stated) ?
VDR inhibitor: -3.4%

Results for CCC1CCCCN1CCCNC(=O)c1cn(CC(C)C)c(=O)c2cc(OC)c(OC)cc12 (configuration not stated) ?
VDR inhibitor: 1.7%
